Assay outcomes from PubChem BioAssay.
Rango-impB inh – qHTS Assay for Inhibitors of Rango (Ran-regulated importin-beta cargo) - Importin beta complex formation; Potency, µM (top dose mostly 92.2 µM), inactives show at the highest dose inhibition of complex formation; Rango CFP/YFP FRET sensor + importin beta, 45 min; AID 540263, 2011; 340,000 tested, 0.031% active; Importin subunit beta-1 (Homo sapiens), Q14974; active = rising FRET ratio curve, often small or poorly fitted; inconclusive = mostly compound fluorescence or quenching in the first reads; inactive = flat curves in all reads;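 note: potency is the fitted concentration of half-maximal effect; 0% = DMSO wells and 100% = buffer wells lacking importin beta; nearly all actives have a fitted effect of over 15% in size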
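Inhibition scored from the CFP 486 nm/YFP 530 nm FRET ratio 45 min after adding 0.125 microM importin beta to 50 nM Rango biosensor preincubated 5 min with compound (room temperature, PBS with DTT, Tween-20, BSA). No-importin wells as positive control.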
GLA inh pH 4.5 – qHTS Assay for Inhibitors of Human alpha-Galactosidase at pH 4.5; purified enzyme, 4-MU-alpha-Gal fluorescence, pH 4.5; activity change, negative = inhibition, % at 105 µM; 230,000 tested, under 10 active; AID 1467, 2008; inconclusive = small, poorly fitted or top-dose-only inhibition, or a rising curve; inactive = flat fitted curve, though single readings scatter; no compound was filed as active;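 note: 0% = full activity with enzyme and -100% = basal without enzyme; dose as in the result columns while the protocol names 77 µM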
Target sequence (P06280 whole entry, looked up): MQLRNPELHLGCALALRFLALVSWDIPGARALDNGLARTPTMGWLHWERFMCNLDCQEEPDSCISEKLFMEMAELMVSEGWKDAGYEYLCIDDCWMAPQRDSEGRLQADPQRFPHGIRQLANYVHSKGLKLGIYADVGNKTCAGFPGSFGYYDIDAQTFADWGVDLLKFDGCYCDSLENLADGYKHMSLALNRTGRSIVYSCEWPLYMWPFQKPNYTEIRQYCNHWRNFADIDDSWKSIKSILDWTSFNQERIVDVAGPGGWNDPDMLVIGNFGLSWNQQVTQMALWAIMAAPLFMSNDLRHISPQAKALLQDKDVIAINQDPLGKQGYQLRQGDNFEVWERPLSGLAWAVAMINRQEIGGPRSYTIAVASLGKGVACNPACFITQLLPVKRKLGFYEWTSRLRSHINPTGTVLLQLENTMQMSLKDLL
miR-21 FLuc – qHTS Assay for Modulators of miRNAs and/orActivators of miR-21 | HeLa miR-21 FLuc reporter, luciferase, 48 h | Potency, µM (highest dose often 38.3 µM), inactives show at the top dose reporter change, positive = more light | 340,000 tested, under 10 active; active = well fitted rising curve with a large enough effect; inconclusive = small, poorly fitted or top-dose-only effect; inactive = no such curve, though single readings can be large or run the other way;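 note: % of control where 0% means no effect; miR-21 action dims this reporter so a rising signal means less miR-21 action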
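Compounds were titrated across several concentrations (up to approximately 40 uM) and incubated 48 hours with HeLa miR-21-FLuc reporter cells (miR-21 target sequence downstream of FLuc, endogenous miR-21). Readout was firefly luciferase luminescence after lytic detection reagent.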
Rango dissoc inh – qHTS Assay for Inhibitors of RanGTP induced Rango (Ran-regulated importin-beta cargo) - Importin beta complex dissociation; Biochemical FRET Rango-importin beta, RanGTP-induced dissociation; Potency, µM (top dose mostly 46.1 µM), for inactives: at the highest dose activity change, negative = inhibition; 340,000 tested, 0.071% active; AID 540253, 2011; active means falling FRET ratio curve, often poorly fitted, with flat reads before Ran was added; inconclusive means other falling curves, or compound fluorescence or quenching; inactive means flat or rising ratio curve;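 note: potency is the fitted concentration of half-maximal effect; % of control where 0% means no effect; nearly all actives have a fitted effect of over 45% in size; -100% = wells without RanGTP and RCC1; the record marks most hits as doubtful in a second field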
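Two FRET readings bracket the reaction: one 5 min after compound meets Rango–importin beta, another 45 min after RanGTP-RCC1 (0.6 uM Ran, 0.2 uM RCC1, 2 mM GTP) is added. Only the second defines inhibition.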
The depositor's hits bear a star; ? = inconclusive; · = not tested or not shown; & = joins results of further samples. An excerpt (hit frequency here may not be typical).

SMILES	Rango-impB inh	GLA inh pH 4.5	miR-21 FLuc	Rango dissoc inh
CC(=O)N1CCc2cc(S(=O)(=O)NCCC(=O)N3CCN(c4ccccn4)CC3)ccc21	4.1%	3	-1%	-13%
CCOC(=O)COc1ccc2c(c1)C(=O)CC1(CCN(C(C)=O)CC1)O2	4.3%	14	-2%	0%
O=C(Cc1ccccc1Cl)N1CCN(c2ncccn2)CC1	0.0%	-10	-1%	-10%
COc1ccc(/C=N/n2c(C)nnc2C)c(OC)c1	-0.7%	6	-1%	0%
CC(C)c1csc(CN2CCC(N3CCC(C(=O)NCC4CCCO4)CC3)CC2)n1 (centres undefined)	-0.2%	-2	1%	2%
CCOC(=O)N1CCC(NC(=O)C2CCN(C(=O)c3cc4oc(C)cc4n3Cc3c(F)cccc3Cl)CC2)CC1	-4.4%	-9	-3%	43%
C[C@H](NC(=O)CCC1CCC(=O)N1)c1ccccc1 (some centres undefined)	0.5%	·	·	-8%
COc1ccc(S(=O)(=O)N2CCCCCC2)cc1C(=O)Nc1ccc(C)cn1	-1.1%	·	·	-2%
CCOc1ccc(C(=S)N2CCCC2)c(OCC)c1	-0.9%	·	-7%	-3%
O=C(c1ccccc1)c1ccccc1C(=O)N1CCCC1	-0.2%	3	-6%	9%
CCCn1c(=O)c(C(=O)NC(C)c2ccccc2)c(O)c2ccccc21 (centres undefined)	0.1%	·	-4%	-6%
Cc1cc(C)cc(N(CCC#N)C(=O)COC(=O)CNC(=O)c2sc3ccccc3c2Cl)c1	?	·	·	-9%
Cc1c(O)c2cccnc2[nH]c1=O	-1.3%	1	1%	12%
O=C(COC(=O)CNC(=O)c1ccccc1)Nc1nc(-c2ccccc2)cs1	-3.2%	0	-43%	-15%
COc1ccc2sc3ccccc3c(=O)c2c1	?	-26	-59%	?
C/C(CC(=O)Nc1cc(Cl)ccc1C)=N\NC(=O)C(=O)N1CCCC1	0.6%	·	-1%	-2%
COC(=O)c1cccc(NC(=O)Nc2ccc(Cl)cc2)c1	-0.9%	3	-31%	-1%
O=C(Cn1ccccc1=O)c1ccc(Cl)cc1	-0.6%	-28	-4%	-10%
CS(=O)(=O)NCCCCCCNS(C)(=O)=O	-1.1%	-6	-1%	-16%
ClC1(Cl)CC1CSc1nnc(-c2ccncc2)o1 (centres undefined)	-0.1%	·	-6%	2%
COCCN(C(=S)Nc1ccc(OC)cc1)C1CCN(C(C)=O)CC1	4.2%	5	-7%	-10%
O=C(OCC1OC2OC3(CCCCC3)OC2C2OC3(CCCCC3)OC12)c1ccccc1 (centres undefined)	0.3%	·	-3%	-4%
Cc1cc(C)n2cc(CSc3nc4ccccc4[nH]3)nc2n1	8.1%	2	-47%	25%
COc1ccc(C2CC(c3ccc(Br)cc3)=NN2C(=S)Nc2ccccc2)cc1 (centres undefined)	-0.2%	-9	-38%	-8%
C/C(Sc1nnc(Cc2ccccc2)o1)=C(\O)c1ccccc1	-0.2%	·	·	-5%
O=C(CNC(=O)c1cccs1)OCC(=O)c1ccc2ccccc2c1	2.1%	-18	-3%	?
Cc1ccc(C(=O)NCCCC(=O)O)o1	-2.8%	1	-1%	0%
Cc1onc(-c2ccccc2Cl)c1C(=O)NCCN1Cc2ccccc2C1=O	4.3%	-5	-3%	-1%
O=C(CSc1n[nH]c(-c2cccnc2)n1)OC1CCCCC1	-4.9%	6	-6%	-9%
COc1cc(NC(=O)c2ccc3c(c2)OCO3)ccc1NC(=O)c1ccco1	-1.7%	3	-13%	-3%
CC(=O)Nc1ccc(OS(=O)(=O)c2ccc(C(C)(C)C)cc2)cc1	·	-9	2%	·
Cc1ccc(NC(=O)CN2C(=O)c3ccccc3C2=O)cc1	-3.6%	·	2%	-21%
Cc1cc2oc(=O)cc(Cn3ccnc3)c2cc1O	1.3%	·	-9%	-4%
O=C(OCCCOC(=O)c1ccc(O)cc1)c1ccc(O)cc1	-2.9%	·	0%	30%
COc1cc(NC(=O)c2ccco2)c(OC)cc1NC(=O)Nc1ccc(Cl)cc1	?	5	-1%	?
O=S(=O)(Cc1ccccc1)Cc1cnc(Cl)s1	0.1%	6	2%	7%
Cc1ccc(S(=O)(=O)NNC(=O)c2ccncc2)cc1	4.1%	-5	-10%	2%
CCN(CC)S(=O)(=O)c1ccc(C(=O)NNC(=O)c2csc(N3CCOCC3)n2)cc1	3.6%	·	·	21%
COC(=O)c1ccccc1NC(=O)Nc1cc(C)ccn1	6.0%	9	-13%	2%
CCN1CCN(C(=S)Nc2ccc(Cl)c(Cl)c2)CC1	-1.8%	1	3%	-4%
O=C(c1ccco1)N1CCN(S(=O)(=O)c2ccc(Cl)cc2)CC1	1.2%	·	-4%	-9%
COc1ccc(NC(=O)COC(=O)c2ccc(OCc3ccc(Cl)cc3Cl)c(OC)c2)c(OC)c1	1.6%	1	-7%	-13%
COC(=O)c1ccc(C(=O)OC)c(NS(=O)(=O)c2ccc(NC(C)=O)cc2)c1	?	9	-14%	-11%
Cc1ccc(NC(=S)N2CCN(c3ncccn3)CC2)c(C)c1	-3.3%	4	-7%	4%
Cn1nc(C(=O)NCCc2ccc(S(N)(=O)=O)cc2)c2ccccc2c1=O	0.7%	-14	3%	15%
Cc1[nH][nH]c(=O)c1C(c1cc([N+](=O)[O-])ccc1O)c1c(C)[nH][nH]c1=O	5.4%	-12	-5%	-14%
Cc1cc(Nc2cccc(Cl)c2Cl)n2ncnc2n1	-1.7%	·	-6%	3%
COc1ccc2nc(N3C(=O)C(O)=C(C(=O)c4ccco4)C3c3ccccc3OC)sc2c1 (centres undefined)	0.5%	·	-23%	?
O=C(COC(=O)c1cncc(Br)c1)NC1CCCCC1	2.7%	8	-1%	-10%
CC(C)c1c(C(=O)N/N=C/c2ccoc2)nnn1-c1nonc1N	-3.5%	·	-6%	?
COc1ccccc1C(=O)NCC(c1ccco1)N1CCc2ccccc21 (centres undefined)	-1.6%	·	·	-3%
O=C1/C(=C/c2ccncc2)SC(=S)N1Cc1ccccc1	3.7%	1	26%	-15%
CS(=O)(=O)c1nc2ccccc2n1Cc1ccccc1	-0.4%	-1	-18%	-1%
Cc1nn(C)c(C(=O)Nc2ccc(Cn3cccn3)cc2)c1[N+](=O)[O-]	1.0%	4	-1%	0%
c1ccc(-n2nnnc2NC2CCCCCC2)cc1	-0.4%	0	3%	-6%
C[C@]1(C(=O)NCc2cc(F)cc(C(F)(F)F)c2)C=C[C@@H](Cc2ccccc2)N1C(=O)c1ccccc1	0.5%	-21&-12	-5%	2%
CCCNC(=O)CCCCn1c(=S)[nH]c2c([nH]c3ccc(OC)cc32)c1=O	-6.0%	-2	0%	0%
Cc1ccc(CNS(=O)(=O)c2cc3c4c(c2)C(C)C(=O)N4CCC3)cc1 (centres undefined)	-4.1%	·	8%	-3%
CC1=CC2=NC(=O)/C(=C/c3cccs3)C(=N)N2O1	?	-3	0%	-9%
Cc1ccc2oc(=O)n(Cc3ccc(F)cc3)c2c1	2.4%	·	-1%	7%

Only GLA inh pH 4.5, Rango dissoc inh and miR-21 FLuc (2 entries from above):
structure	GLA inh pH 4.5	Rango dissoc inh	miR-21 FLuc
CS(=O)(=O)c1nc2ccccc2n1Cc1ccccc1	-1	-1%	-18%
Cc1nn(C)c(C(=O)Nc2ccc(Cn3cccn3)cc2)c1[N+](=O)[O-]	4	0%	-1%

Remaining list, next part.
SMILES	Rango-impB inh	GLA inh pH 4.5	miR-21 FLuc	Rango dissoc inh
COC(=O)c1c(NC(=O)C(C)C)sc(C(=O)N2CCOCC2)c1C	1.5%	·	0%	-4%
COC(=O)[C@@]1(C)[C@H]2C(=O)N(Cc3ccccc3)C(=O)[C@H]2[C@H]2CN=C(SCc3ccc(C#N)cc3)N21	-1.1%	·	·	-9%
CC(C)[C@@H](C(=O)N1CCNCC1)n1cc(CCO)nn1	-2.5%	-10	-4%	24%
Cc1ccc(C(=O)OCC(=O)NC2CCCC2)cc1	2.8%	·	1%	-15%
CN1CCCc2cc(C#N)c(=O)[nH]c21	?	24	-11%	-7%
O=C(NC(C(=O)c1ccccc1)c1ccccc1)c1ccccc1 (centres undefined)	6.5%	·	·	-11%
COc1cc(/C=C/C(=O)OC(C)C(=O)Nc2ccc(Cl)cn2)ccc1OC(F)F (centres undefined)	-0.4%	·	·	-13%
COc1ccc(N(CC(=O)NCc2ccc(C)cc2)S(=O)(=O)c2c(C)nn(C)c2C)cc1	2.4%	-1	-1%	-20%
O=C1CC(c2ccccc2)Cc2nc(N3CCc4ccccc43)ncc21 (centres undefined)	?	·	·	?
CCN(CC)C(=O)/C(=C\c1ccncc1)NC(=O)c1ccccc1	-0.3%	11	-4%	2%
CCN(CC(=O)NCc1cccs1)S(=O)(=O)c1ccc(NC(C)=O)cc1	-0.8%	1	0%	18%
Cc1ccccc1S(=O)(=O)/N=C(/c1ccccc1)N1CCOCC1	-0.4%	-13	2%	-6%
COC(=O)c1ccccc1NC(=S)N(Cc1ccc2c(c1)OCO2)Cc1cc2ccc(C)cc2[nH]c1=O	0.5%	1	19%	6%
O=C(OCCCCN1C(=O)c2ccccc2C1=O)c1ccc(Br)o1	-0.4%	-11	-3%	3%
CCN(CCNc1ccc(Cl)cc1[N+](=O)[O-])C(=O)c1cc([N+](=O)[O-])c(N(C)C)cc1OC	-4.7%	2	-12%	-5%

Record cards, from the list above. Order of values: Rango-impB inh | GLA inh pH 4.5 | miR-21 FLuc | Rango dissoc inh
CS(=O)(=O)c1nc2ccccc2n1Cc1ccccc1 in the list: -0.4% | -1 | -18% | -1%
O=C(c1ccccc1)c1ccccc1C(=O)N1CCCC1 in the list: -0.2% | 3 | -6% | 9%
COc1cc(NC(=O)c2ccc3c(c2)OCO3)ccc1NC(=O)c1ccco1 in the list: -1.7% | 3 | -13% | -3%

Following part
SMILES	Rango-impB inh	GLA inh pH 4.5	miR-21 FLuc	Rango dissoc inh
O=C(Nc1ccccc1)c1nc[nH]c1C(=O)NCCCNC(=O)c1[nH]cnc1C(=O)Nc1ccccc1	3.6%	·	·	13%
COC(=O)c1cc2occc2n1CC(=O)Nc1ccc(OC)c(OC)c1	-2.8%	6	0%	-4%
COc1ccccc1C1CC(c2c(-c3ccccc3)c3cc(Cl)ccc3[nH]c2=O)=NN1S(C)(=O)=O (centres undefined)	4.4%	5	8%	1%
CCOC(=O)c1ccc(N(C(=O)c2ccco2)C(C(=O)NC2CCCCC2)c2ccncc2)cc1 (centres undefined)	-5.0%	·	1%	9%
Nc1cccc(C#Cc2ccc3c(=O)c4ccccc4oc3c2)c1	-3.7%	·	·	22%
O=C(NCCC1=CCCCC1)C(=O)NCC1OCCCN1S(=O)(=O)c1cc(F)ccc1F (centres undefined)	-4.8%	-1	11%	13%
COc1ccc(/C=C/C(=O)NC2CCCCC2C)cc1 (centres undefined)	?	·	-20%	-4%
O=C(Nc1ccc(Cl)cc1)C1CC2CCCC(C1)C2=O (centres undefined)	1.1%	4	-3%	1%
CC(C)CN(CCNC(=O)CC1Oc2ccccc2NC1=O)CC(C)C (centres undefined)	-2.0%	-8	-3%	-3%
Cc1ccc(C2=C(O)c3ccccc3C(=O)C2=O)cc1	?	·	1%	9%
CC1=C(C(=O)Nc2ccc(C)cc2C)C(c2ccc(C)o2)NC(=O)N1 (centres undefined)	-4.6%	0	-7%	-29%
Cc1ccc(C2NC(C(=O)O)CS2)cc1 (centres undefined)	·	-6	0%	·
CC1=NC(C)(C)Cc2cc(C)c(C)cc21	0.5%	4	-5%	-3%
O=C(COc1ccc(Cl)cc1)NNC(=O)c1ccc2c(=O)n3c(nc2c1)CCC3	-4.1%	·	·	-6%
O=C(Nc1ccc(N2CCOCC2)c(Cl)c1)c1ccc(Cl)cc1	1.2%	-5	9%	1%
Cc1ccc(-c2nnc(N(C)C(=O)c3cccnc3)s2)cn1	6.6%	-1	-15%	-4%
Cc1ccc(-c2nn[nH]n2)o1	-0.3%	-19	-1%	1%
Cc1ccccc1CN1CCN(CC(=O)NCc2ccccc2)C1=O	6.2%	-5	-3%	-1%
CC(C)NC(=O)COC(=O)c1cncc(Br)c1	-2.5%	5	-1%	-8%
